HIV Env fusion – inhibitors of HIV-1 Env-driven cell-cell fusion, primary screen, HeLa-JRFL effector, CEM21 target cells, luciferase; inhibition, % at 12.3 µM; actives 1.1% (n = 360,000); AID 651610, 2012;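 active means mean replicate inhibition score of at least 50 and every replicate individually at or above 50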;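 further: 0% = plate neutral controls and 100% = maraviroc near 300 nM; one replicate is shown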
MT1-MMP act inh – blockers of MT1-MMP proenzyme processing, primary screen, HT1080 RFP-PRO-GFP cells, GFP/RFP fluorescence; GFP/RFP ratio change, % at 20 µM; actives 0.061% (n = 360,000); GFP/RFP ratio fluorescence, overnight; percent of plate control window, DMSO zero; Matrix metalloproteinase-14 (Homo sapiens), P50281;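 active means GFP/RFP ratio change of at least 30% with cell ATP level not reduced by more than half and red fluorescence within 50% of control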; further: strong numbers were not always called active
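Material: RFP-PRO-GFP reporter HT1080 cells. Dosing: single-point 20 µM compound, 1% DMSO. Controls: DMSO and RFP-L50D-GFP cell wells. Timing: cells overnight before dosing, compound overnight, 37 °C, 5% CO2. Measure: GFP/RFP fluorescence ratio.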
PABP FP inh – PABP poly(A) RNA binding inhibitors, primary screen, biochemical, fluorescence polarization, uHTS; Polyadenylate-binding protein 1 (Homo sapiens), P11940; inhibition, % at 35 µM; actives 1% (n = 290,000);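 active means 50% or more with normal probe brightness, or confirmed in later tests; about a fifth of its hits are not listed in these tables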;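 further: calls also rest on retests at 20 µM and on dose response follow-up; controls were probe without protein and protein plus probe with vehicle; some compounds called inactive have numbers as strong as hits; many hits fall short of the cut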
Rce1 inh – yeast Rce1p protease inhibitors, primary screen, biochemical, fluorescence, cell-free homogeneous; actives 0.27% (n = 290,000); AID 2563, 2010; calls only; yeast membranes, quenched prenylated peptide cleavage fluorescence;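 active means fall in fluorescence gain of 50% or more versus controls, with final raw signal at or below 3038400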;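 further: plate controls were neutral control wells for no effect and wells lacking membranes for full effect; tested at 10 µM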
Target sequence (Q03530 whole entry, looked up): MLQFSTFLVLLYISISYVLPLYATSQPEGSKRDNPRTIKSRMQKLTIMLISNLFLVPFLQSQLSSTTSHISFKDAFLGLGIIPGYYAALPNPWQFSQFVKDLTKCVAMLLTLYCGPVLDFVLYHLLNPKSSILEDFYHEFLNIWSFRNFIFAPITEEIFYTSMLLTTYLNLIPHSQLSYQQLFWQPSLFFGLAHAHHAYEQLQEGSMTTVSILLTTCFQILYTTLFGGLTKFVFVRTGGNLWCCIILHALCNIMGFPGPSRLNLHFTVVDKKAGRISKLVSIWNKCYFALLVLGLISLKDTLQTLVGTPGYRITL
UUG fidelity – modulators of yeast start codon fidelity, primary screen, whole organism, S. cerevisiae, single point, plate reader | S. cerevisiae UUG-firefly luciferase reporter, luminescence/redox ratio | activity score, % at 18.7 µM | actives 0.13% (n = 350,000);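 active means replicate mean at a twofold rise or more, about +100% in these data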;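 further: firefly luciferase made from a UUG start codon reports start codon fidelity; reporter light over untreated wells divided by growth signal over untreated wells; some hits fall short of that in this replicate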
CSC inhib – cancer stem cell viability inhibitors, primary screen, luminescence; inhibition, % at 7.5 µM; actives 1.1% (n = 300,000); cancer stem cell-like cells viability; AID 2717, 2010;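 active means mean at 75% or more and at least half the replicates too; tested in HMLE shEcad cells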;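 further: 0% = median of negative and 100% = median of positive control wells; the first replicate is given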
eIF4H inh – human eIF4H binding inhibitors, primary screen, translation initiation inhibitor project, biochemical, uHTS, fluorescence polarization; eIF4H fluorescence polarization binding assay; inhibition, % at 35 µM; actives 0.94% (n = 290,000);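 active means 50% or more with normal probe brightness, or confirmed in later tests; about a fifth of its hits are not listed in these tables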;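 further: calls also rest on retests at 20 µM and on dose response follow-up; 0% = protein and probe with vehicle and 100% = probe without protein; strong numbers were not always called active; many hits fall short of the cut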
MT1-MMP act inh RFP – also measured in MT1-MMP act inh; calls as there; RFP signal change, %; measured here: RFP expression control read;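 0 = vehicle wells; hits needed this value within 50% of zero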
* marks the source's active call; other numbers are inactive results; i = inactive; · = not tested or not shown; & = joins results of further samples. Only part of the results is shown. The share of hits here may be higher or lower than overall.

Compound	HIV Env fusion	MT1-MMP act inh	MT1-MMP act inh RFP	PABP FP inh	Rce1 inh	UUG fidelity	CSC inhib	eIF4H inh
O=C1c2ccccc2C(=O)N1CCC1=CCCCC1	·	-2.6	4.4	1.4	i	-21.3	2.9	-7.1
CC1CC(C)CN(C(=O)CSCC(=O)Nc2nc(-c3cccs3)cs2)C1 (stereo unspecified)	·	-1.5	2.0	-6.0	i	-10.6	2.0	4.6
O=C(O)c1ccccc1C(=O)c1ccc2c(c1)N(Cc1ccc(Cl)c(Cl)c1)C(=O)CO2	-3.6	-1.2	-3.3	-4.8	i	-9.0	3.6	0.2
CC(=O)c1ccc(OC(C)C)c(CC(C(N)=O)C(N)=O)c1	-4.6	0.1	3.0	-10.4	i	-10.2	4.4	-13.7
CCN1CCN(CC(=O)Nc2ccc(C(C)=O)cc2)CC1	18.0	-0.3	3.1	7.7	i	-20.8	4.3	13.8
CC1CCCCN1S(=O)(=O)c1ccc(N(C(=O)c2cnccn2)C(C(=O)NC2CCCC2)c2cccs2)cc1 (stereo unspecified)	31.7	-0.8	-2.0	5.9	i	·	-7.9	-10.0
CCn1c(SCC(=O)N/N=C/C=C\c2ccco2)nc2ccccc21	-7.6	-4.1	8.7	·	i	-11.6	1.8	·
CN(C)C(=O)N1CCC(C(=O)NCc2ccccc2Cl)CC1	·	2.7	3.7	-1.9	·	·	3.9	-3.1
O=C(COC(=O)C1CC(=O)N(Cc2ccccc2)C1)c1ccc(Br)cc1 (stereo unspecified)	-13.1	1.6	3.8	3.9	i	15.9	3.1	-4.9
O=C(C1CCC(CNS(=O)(=O)c2cccs2)CC1)N1CCN(c2ccc(Cl)cc2)CC1 (stereo unspecified)	17.5	-6.1	-30.4	-8.3	i	-3.2	-10.4	-8.8
CC(=O)c1cc2c(cc1NC(=O)CCNC(=O)c1ccccc1Cl)OCO2	·	-2.7	-3.1	-4.4	i	-2.5	-3.8	-14.5
O=C(COc1ccc(Cl)cc1)c1ccc(O)cc1O	-8.5	0.3	-2.5	8.6	i	21.1	21.8	-4.2
COC(=O)C1(S(=O)(=O)c2ccc(C)cc2)CCOCC1	·	3.6	0.1	-7.9	i	-19.2	0.9	-16.2
COc1ccc(C2CC(c3cccc(OC)c3OC)n3nnnc3N2)cc1 (stereo unspecified)	14.1	7.9	-3.5	-0.9	i	-18.9	-10.5	4.5
O=C(CSc1nnc(NC(=O)c2c(F)cccc2F)s1)Nc1ccccc1F	-7.7	4.6	2.5	12.9	i	-4.2	-5.6	-0.9
Cc1ccc(N/C=C/C(=O)c2sc(-c3ccccc3)nc2C)cc1	·	-6.9	1.4	8.9	i	-9.3	35.1	-1.4
NC(=O)C1CCN(C(=O)CSc2nc3ccccc3o2)CC1	9.9	-8.9	-12.7	12.4	i	-15.6	·	-1.9
O=C(CN1C2=NCCN2c2ccccc21)c1ccc(Br)cc1	·	-6.2	-0.6	-3.7	i	-10.6	3.5	-10.9
CCS(=O)(=O)c1ccc(-c2cccc(NC(=O)c3ccc(Br)o3)c2)nn1	6.3	1.5	3.8	·	i	-12.1	3.6	·
O/N=C\c1ccc2noc(-c3ccc(Cl)cc3)c2c1	11.2	-6.2	-5.2	2.3	i	-34.0	0.0	-10.8
CCCCn1c(SCC(=O)NNC(=O)c2ccccc2)n[nH]c1=O	·	0.4	1.4	·	·	-9.9	3.9	·
COc1ccc2cc(C3CC(c4cccs4)=NN3C(C)=O)c(Cl)nc2c1 (stereo unspecified)	0.7	1.2	-2.6	8.6	i	·	10.0	-1.6
Cc1cc(C)cc(NC(=O)C2CCCCN2S(=O)(=O)c2ccccc2)c1 (stereo unspecified)	-1.5	-0.9	-3.8	·	·	1.5	·	·
O=C(c1cnc2n(c1=O)CCS2)N(c1ccccc1)C1CCCCC1	·	-0.5	-1.4	0.9	i	-13.2	-1.7	2.2
COc1cc(CNCCO)ccc1OCCc1ccccc1	-55.5	-4.4	-0.8	7.3	i	-8.2	-3.8	-8.1
CCC/C(O)=C1\C(=O)CCCC1=NC(C)C(=O)O (stereo unspecified)	·	-0.7	2.2	2.7	·	-9.8	-0.2	8.3
O=C(Nc1ccc(Cl)c(S(=O)(=O)N2CCOCC2)c1)C1CCCC1	·	3.7	-15.8	·	·	-17.4	-4.3	·
NC(=O)CC(c1ccccc1)c1ccco1 (stereo unspecified)	-7.9	4.9	-1.2	-6.3	i	2.5	3.8	-7.4
O=C(Cn1c(=O)n(Cc2ccccc2)c(=O)c2cc(Cl)ccc21)NCC1CCCO1 (stereo unspecified)	27.2	2.4	3.7	-0.5	i	0.6	-4.1	-3.5
CSc1nnc(C)c(=O)n1COC(=O)c1cc(Cl)ccc1[N+](=O)[O-]	11.3	-3.6	-6.5	9.1	i	·	-21.6	1.1
CCCC(=O)Nc1sc2c(c1C(=O)OCC)CC(C)(C)OC2	4.9	-1.4	2.4	1.9	i	10.2	-7.3	-0.1
N#C/C(=N\Nc1ccccc1[N+](=O)[O-])C(=N)N1CCCCC1	-72.8	2.9	-2.2	-30.7	i	-17.0	-5.5	-0.2
CN(Cc1ccc(F)cc1)Cc1nc(CCc2ccccc2)no1	14.4	-3.2	-4.8	3.7	i	·	-1.5	2.3
Cc1cc(S(=O)(=O)N2CCCCC2CCNC(=O)C(=O)NC2CC2)ccc1F (stereo unspecified)	·	-6.3	-4.3	·	i	-3.9	-20.9	·
CCc1nc2ccc(C(=O)Nc3ccc(OC)c(OC)c3)cn2c1N(C)Cc1ccc(N(C)C)cc1	25.0	0.3	-7.4	·	·	-12.7	·	·
CCCn1c(N)c(N(CCOC)C(=O)c2cccc(F)c2)c(=O)[nH]c1=O	2.9	·	·	-9.7	i	-0.5	-11.7	-2.4
O=C(NCCOC(=O)c1c(F)cccc1Cl)c1c(F)cccc1Cl	-8.7	-1.8	0.3	9.7	i	-15.8	-10.5	6.2
Cc1cc(/C=N/N2CCN(C)CC2)c(C)n1-c1ccccc1F	-2.2	-2.0	-0.1	4.2	i	·	-0.9	2.3
Cc1cc(C)c2nc(N(CCN(C)C)C(=O)c3ccc(S(=O)(=O)N(C)CC4CCCO4)cc3)sc2c1 (stereo unspecified)	1.1	3.7	7.2	-18.5	i	3.7	-1.7	-3.3
CC1(C)C(C=C(Cl)Cl)C1C(=O)NC(O)C(=O)c1ccccc1 (stereo unspecified)	-23.5	2.7	0.8	-2.1	i	-5.8	-1.7	-5.8
Nc1nc2c(ncn2[C@@H]2O[C@H](CNCC3=Cc4cc(O)ccc4OC3)[C@@H](O)[C@H]2O)c(=O)[nH]1	0.3	1.1	4.1	·	·	-14.3	·	·
C(=C\c1ccccc1)/CN1CCN(c2ncnc3c2oc2ccccc23)CC1	77.7*	5.5	-22.7	-5.1	i	·	-11.9	0.2
O=[N+]([O-])c1ccccc1OCCN1CCOCC1	-2.7	-0.5	1.5	5.9	i	-16.6	-6.6	-7.3
CC(=O)Cn1nnc2sc(-c3ccccc3)cc2c1=O	-73.8	-3.5	1.3	-6.3	i	·	-7.9	8.8
COc1ccccc1C(=O)Nc1nc(-c2cccs2)c(NC(C)=O)s1	-243.8	3.2	-0.1	-6.8	i	-17.1	12.1	0.9
CC(C)(C)n1nc2c(c1NC(=O)c1ccc(S(=O)(=O)N3CCCC3)cc1)CS(=O)C2 (stereo unspecified)	·	-0.6	5.3	-5.2	i	-14.0	10.4	-11.6
CCCCN(C(=O)c1cc(-c2ccc(F)cc2)nc2ccccc12)c1c(N)n(CCCC)c(=O)[nH]c1=O	-14.0	-11.4	-7.3	·	·	-13.4	·	·
O=C(CSCC(=O)OCC(=O)c1ccc(Br)cc1)Nc1ccc(Br)cc1	-31.3	0.8	4.2	-2.7	i	-10.4	-0.6	-2.9

In the list so far, these contain a COOH group.
Compound	HIV Env fusion	MT1-MMP act inh	MT1-MMP act inh RFP	PABP FP inh	Rce1 inh	UUG fidelity	CSC inhib	eIF4H inh
O=C(O)c1ccccc1C(=O)c1ccc2c(c1)N(Cc1ccc(Cl)c(Cl)c1)C(=O)CO2	-3.6	-1.2	-3.3	-4.8	i	-9.0	3.6	0.2
CCC/C(O)=C1\C(=O)CCCC1=NC(C)C(=O)O (stereo unspecified)	·	-0.7	2.2	2.7	·	-9.8	-0.2	8.3

More structures follow:
Compound	HIV Env fusion	MT1-MMP act inh	MT1-MMP act inh RFP	PABP FP inh	Rce1 inh	UUG fidelity	CSC inhib	eIF4H inh
NC(=O)CSc1nnc(-c2ccc(S(=O)(=O)N3CCOCC3)cc2)n1Cc1ccccc1	-12.7	-6.5	-0.3	3.7	i	-17.8	2.3	2.8
Cc1ccccc1OCC(O)CN1CCN(C)CC1 (stereo unspecified)	-0.4	-2.6	0.0	12.6	i	1.2	-8.7	-14.5
CCc1nc(SCC(=O)Nc2nnc(CC)s2)c2c(C)c(C)sc2n1	·	1.7	-0.1	-8.1	i	-0.9	-1.8	-9.0
NS(=O)(=O)c1ccc(-n2nncc2C23CC4CC(CC(C4)C2)C3)cc1	·	-0.2	-2.6	-0.7	i	·	-12.9	2.3
O=C(CN1CCN(C(=O)N2CCCCC2)CC1)Nc1ccc(F)cc1	·	6.3	0.0	-9.9	i	-8.3	3.9	3.6
CCOC(=O)c1ccc(-c2ccc(C=O)o2)cc1	-75.5	2.9	6.5	0.4	i	·	30.4	-1.5
CCCCN(C(=O)c1ccc(Cl)cc1)C1CC2CCC(C1)N2C (stereo unspecified)	-6.3	-3.7	3.7	-3.5	i	11.4	2.1	-7.7
CN(C1CCCCC1)S(=O)(=O)c1cccc2nsnc12	8.0	-1.5	-0.9	5.7	i	12.3	-14.8	-17.4
Cc1ccc(CN2C(=O)CCC2C(=O)NCCCN2CCCCC2C)cc1 (stereo unspecified)	·	-2.4	1.5	-5.9	i	-5.6	-3.0	5.0
CC(C)c1ccc(NC(=O)C2Cc3c(-c4cccc(F)c4)ccnc3O2)cc1 (stereo unspecified)	-0.4	5.9	-2.7	·	·	-5.5	·	·
CCN1CCN(c2ccc(S(=O)(=O)N3CCOCC3)cc2NC(=O)CCC(C)C)CC1	-6.9	2.6	2.5	·	i	-15.2	-12.0	·
O/C(=C\Sc1nnc(Cc2ccccc2)o1)c1ccc(Br)cc1	·	-2.8	-3.7	-11.8	i	-5.0	-5.4	-3.4

Records listed so far printed as active in HIV Env fusion:
Compound	HIV Env fusion	MT1-MMP act inh	MT1-MMP act inh RFP	Rce1 inh	UUG fidelity
C(=C\c1ccccc1)/CN1CCN(c2ncnc3c2oc2ccccc23)CC1	77.7*	5.5	-22.7	i	·

(list continues)
Compound	HIV Env fusion	MT1-MMP act inh	MT1-MMP act inh RFP	PABP FP inh	Rce1 inh	UUG fidelity	CSC inhib	eIF4H inh
Cc1ccc(-c2nc(C=Nc3cccc(C)c3)c(O)o2)cc1	7.9	0.8	-1.8	17.8	i	·	-1.4	-6.5
COc1ccc(C2=NN(C(=O)CSc3nc(=O)n4ccc(C)cc4n3)C(c3ccc(C)cc3)C2)cc1 (stereo unspecified)	13.7	5.6	-7.7	·	i	-7.6	-5.9	·
COc1ccc(C#Cc2ccc3c(c2)O[C@@H](CN(C)C(=O)Nc2cccc(OC)c2)[C@H](C)CN([C@@H](C)CO)S3(=O)=O)cc1	-66.1	-5.5	-11.8	·	·	-6.0&-1.6	·	·
O=C(COc1ccc2c3c(c(=O)oc2c1)CCCC3)NCC(O)c1ccccc1 (stereo unspecified)	-1.2	-1.8	-0.4	7.7	i	-12.3	-16.3	0.1

Screens: PubChem, several laboratories
